High-throughput results: PubChem BioAssay, several laboratories
Beta cell apopt: inhibitors of cytokine-induced beta cell apoptosis, primary screen, luminescence | INS-1E cytokine-induced death, ATP luminescence, 48 h; percent of positive-control rescue, neutral wells zero | protection from apoptosis, % (test concentration not listed) | 300,000 compounds, 0.8% hits;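 active means all replicates at 75% or more, or half of them and the mean; inconclusive means half reach 75% but not the mean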;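 further: 0% = cytokine-treated negative control wells and 100% = positive control rescue; higher means more ATP so stronger rescue from cytokine killing; wells of about 40 µL received 100 nL stock; the first replicate is given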
LANA-H2B inh: blockers of LANA interaction with H2A/H2B – biochemical, FP readout, HTS, primary screen | Protein LANA1 (Human herpesvirus 8 type P (isolate GK18)), Q9QR71 | cell-free LANA-H2A/H2B peptide, fluorescence polarization | inhibition, % (no concentration beside the values) | 320,000 compounds, 0.6% hits; in the data active means inhibition mostly above about 10%, no sharp cut-off; inactive means mostly below about 6.7%;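 further: stock transfer was 7.5 nL into about 10 µL; 0% = median of vehicle wells and 100% = median of positive control wells; one replicate is shown; the record names a cut of 25% in any replicate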
Target sequence (Q9QR71 whole entry, looked up): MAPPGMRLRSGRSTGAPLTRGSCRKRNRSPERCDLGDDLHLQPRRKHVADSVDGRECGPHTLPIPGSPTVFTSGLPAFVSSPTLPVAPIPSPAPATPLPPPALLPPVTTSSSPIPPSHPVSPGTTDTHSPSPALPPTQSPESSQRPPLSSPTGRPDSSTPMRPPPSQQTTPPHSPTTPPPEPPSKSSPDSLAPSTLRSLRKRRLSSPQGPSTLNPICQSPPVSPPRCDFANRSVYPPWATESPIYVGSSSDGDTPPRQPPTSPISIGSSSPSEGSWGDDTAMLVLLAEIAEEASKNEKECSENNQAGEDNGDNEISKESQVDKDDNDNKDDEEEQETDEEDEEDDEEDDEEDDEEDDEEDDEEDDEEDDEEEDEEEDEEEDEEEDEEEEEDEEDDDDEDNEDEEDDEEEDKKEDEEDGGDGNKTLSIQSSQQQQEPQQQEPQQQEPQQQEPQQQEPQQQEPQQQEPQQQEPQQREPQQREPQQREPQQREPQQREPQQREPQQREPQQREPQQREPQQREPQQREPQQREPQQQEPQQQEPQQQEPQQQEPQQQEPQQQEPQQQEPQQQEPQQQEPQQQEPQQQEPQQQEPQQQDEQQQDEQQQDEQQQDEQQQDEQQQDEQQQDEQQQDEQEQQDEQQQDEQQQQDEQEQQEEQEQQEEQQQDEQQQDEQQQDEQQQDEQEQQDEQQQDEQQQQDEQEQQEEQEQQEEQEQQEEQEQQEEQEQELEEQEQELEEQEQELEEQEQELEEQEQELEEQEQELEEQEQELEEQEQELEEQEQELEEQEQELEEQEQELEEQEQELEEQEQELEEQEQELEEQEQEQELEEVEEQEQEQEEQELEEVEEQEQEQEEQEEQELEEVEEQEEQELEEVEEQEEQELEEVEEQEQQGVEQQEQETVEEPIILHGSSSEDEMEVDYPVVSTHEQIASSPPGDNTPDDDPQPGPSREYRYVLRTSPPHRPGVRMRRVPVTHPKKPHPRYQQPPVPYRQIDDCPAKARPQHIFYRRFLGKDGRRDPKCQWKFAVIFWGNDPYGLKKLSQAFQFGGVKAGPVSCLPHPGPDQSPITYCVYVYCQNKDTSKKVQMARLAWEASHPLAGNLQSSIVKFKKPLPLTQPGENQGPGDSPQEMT
UCH37 inh: inhibitors of human UCH37 deubiquitinase, primary screen, biochemical, Ub-AMC cleavage, fluorescence; Ubiquitin carboxyl-terminal hydrolase isozyme L5 (Homo sapiens), Q9Y5K5; purified proteasome/UCH37; inhibition, % (concentration not given with the values); 330,000 compounds, 0.33% hits; AID 588478, 2011;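 active means mean of two replicates above 20%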;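 further: 0% = compound-free wells with enzyme and 100% = wells lacking proteasome; stock transfer was 100 nL into about 20 µL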
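Reagent: Ub-AMC substrate; assay system: Proteasome-associated human UCH37 deubiquitinase; controls: no-proteasome and no-compound wells; read-out: % inhibition of Ub-AMC cleavage fluorescence; timing: 30 min preincubation with enzyme, 25 min cleavage at room temperature; signal: AMC fluorescence from Ub-AMC cleavage, excitation 355 nm, emission 460 nm; buffer or medium: Tris-HCl pH 7.4 plus ovalbumin, ATP-MgCl2, DTT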
A1 inh: caspase 3/7 activation in MEF A1-2A-BIM cells, primary screen, A1 inhibitor project, cell-based, luminescence, HTS; caspase activation, % (test concentration not listed); 330,000 compounds, 0.066% hits; Caspase-Glo 3/7 luminescence, 3 h; percent of clofoctol response, vehicle zero;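 active means over half of replicate activation scores above 10%, or exactly half above 10 with the replicate mean above 10; inconclusive means replicate mean below 10 yet half the replicates above 10; inactive means over half of replicates below 10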;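 further: wells of about 30 µL received 50 nL stock; many hits fall short of the cut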
Calb FLC: C. albicans growth inhibition with fluconazole, primary screen, CaCi-2 strain, Alamar Blue fluorescence | C. albicans CaCi-2 (fluconazole-resistant clinical isolate) + fluconazole, 48 h | growth inhibition, % (no concentration beside the values) | 300,000 compounds, 0.57% hits | AID 1979, 2009;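 active means most replicates above 75%; inconclusive means exactly half above 75%; inactive means most below 75%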;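 further: all wells also contain fluconazole at 8 µg/ml as a sub-toxic cotreatment; 0% = median of DMSO wells and 100% = median of geldanamycin control wells; wells of about 8 µL received 7.5 nL stock; the first replicate is given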
RanGTP-Impb inh: inhibitors of RanGTP-importin-beta interaction, primary screen, biochemical, FRET, CFP-Ran, YFP-importin-beta, homogeneous; cell-free CFP-Ran/YFP-importin-beta FRET ratio; Ran GTPase (GTP-bound) - importin-beta complex; inhibition, % (test concentration not listed); 300,000 compounds, 1.1% hits;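 active means most replicates above 15%; inconclusive means exactly half above 15%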;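 further: 0% = DMSO wells and 100% = Ran loaded with GDP instead of GTP; wells of about 40 µL received 100 nL stock; the first replicate is given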
T cruzi repl: inhibitors of intracellular T. cruzi growth, primary screen, luminescence, NIH3T3 host cells. T. cruzi beta-gal in NIH3T3, 90 h. inhibition, % (no concentration beside the values). 300,000 compounds, 1.4% hits;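 active means mean inhibition across valid replicates above about 55%, limit read from the data; inconclusive means mean below that limit but half or more replicates reach it; inactive means mean below it, under half of replicates reach it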;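 further: signal also drops with host cell toxicity which is not excluded here; 0% = plate median of DMSO wells and 100% = zero luminescence signal; higher percent means less beta-gal luminescence so fewer parasites; stock transfer was 50 nL into about 50 µL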
Beta2AR agonist: beta2AR agonists driving receptor internalization, primary screen, cell-based, FAP fluorogen, flow cytometry | Beta-2 adrenergic receptor (Homo sapiens), P07550 | Am2.2-beta2AR cells; reference of the scale not given here | response, % (no concentration beside the values) | 340,000 compounds, 0.43% hits | AID 504454, 2011;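 active means response above a set limit, near 3 SD of response in nonfluorescent compounds, cut at about 42% in these data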;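 further: stock transfer was 100 nL into about 11 µL; a reference agonist was the positive control; negative values mostly stem from fluorescent compounds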
An asterisk follows results filed as active; ? = inconclusive; . = no result given.

SMILES	Beta cell apopt	LANA-H2B inh	UCH37 inh	A1 inh	Calb FLC	RanGTP-Impb inh	T cruzi repl	Beta2AR agonist
COc1cccc(NC(=O)Cn2c3ccc(F)cc3c3nc4n(c(=O)c32)CCCS4)c1	-1	-3.2	-84	0.5	3	-1.3	17	-18
CCn1c(=O)c2ccccc2n(CC(=O)NC2CCCCC2)c1=O	4	-2.8	2.2	1.4	9	3.9	-13	-5
CC(C)c1ccc(CNc2ccc3c(c2)ncn3C)cc1	-11	-3.2	-9.4	-2.9	6	?	16	-5
NC(=O)C1CCN(C(=O)CCC(=O)N2CCOc3ccc(Cl)cc32)CC1	-8	-3.2	3.8	-0.1	0	-4.6	-8	3
COc1cc(C(CC(=O)N2CCCC2)c2c(OC)cc(OC)c3c(-c4ccccc4)cc(=O)oc23)cc(OC)c1OC (stereo not given)	10	1.6	5.6	0.0	-1	-4.7	38	-3
CCCc1ccc2oc(C(=O)N(C)CCn3ccnc3C)c(C)c2c1	0	-2.3	4.7	-0.1	3	-1.3	6	5
CCOC(=O)c1c(C)[nH]c(C)c1S(=O)(=O)N(C)CC(=O)NCc1ccc(C)cc1	-3	1.5	2.6	0.5	0	-2.8	-16	1
COc1ccccc1/C=C1\SC(=S)N(CCC(=O)Nc2cc(C)on2)C1=O	0	-3.3	7.4	-0.4	-8	-2.1	-4	2
NNC(=O)CCN1CCCCC1	0	2.6	1.7	-0.5	-7	3.2	-20	-17
C=C1CCN([C@@H](Cc2ccccc2)C(=O)NCc2ccccc2)S(=O)(=O)c2ccccc21	-3	4.9	-1.6	-0.6	2	-0.6	4	-8
COc1ccc(C(C(=O)NC2CCCCC2)N(C(=O)c2cccs2)c2ccc3c(c2)OCO3)cc1 (stereo not given)	4	2.3	1.7	0.1	-7	2.1	10	0
Cc1cc(C(=O)Cn2cnc3ccccc3c2=O)c(C)n1C1CC1	4	-18	-2.0	-1.6	0	.	-4	-2
O=C(Nc1cc(S(=O)(=O)Nc2ccc(Cl)cc2)ccc1N1CCCCC1)c1ccc(F)cc1Cl	9	-4.7	-1.8	-0.4	17	-0.3	35	19
CCOC(=O)N1CCN(Cc2nc(-c3ccc(Cl)cc3)no2)CC1	6	0.0	5.5	-0.2	0	-2.8	-1	9
O=C(CN1C(=O)c2ccccc2C1=O)OCC(=O)N1CCCCC1	-9	-0.2	0.4	2.6	.	.	.	-1
Cc1ccc(-n2nc3c(=O)n(CCCC(=O)NC4CCC(C)CC4)nc(C)c3c2C)cc1 (stereo not given)	0	0.8	2.0	-0.2	-1	2.7	1	-7
Cc1ccc(-c2nn(-c3ccccc3)cc2C(=O)NCC2CCCO2)cc1 (stereo not given)	-2	5.9	1.7	0.6	7	-0.7	11	-5
CCN(CC)c1ccc(NC(=S)Nc2ccc(F)cc2)cc1	.	.	4.9	.	-37	?	27	-1
O=C(O)Cn1nnc(-c2cccs2)n1	-5	5.2	-3.9	0.3	1	-2.1	-16	4
COc1ccc(S(=O)(=O)NC2CC3CCC2C3)cc1Cl (stereo not given)	4	1.3	1.3	0.8	-17	-7.9	7	4
Cc1cc(NC(=O)CSc2nc(-c3ccccc3Cl)nc3c2c(=O)n(C)c(=O)n3C)no1	0	1.9	1.6	0.5	28	-4.5	3	-10
Cc1ccc(N=Nc2c(N)[nH]n3c(=O)cc(C)nc23)cc1	-2	0.9	15	-7.9	1	8.2	13	6
COc1ccccc1CNC(=O)Cc1ccc(C)cc1	2	1.6	-1.3	0.7	-5	1.9	19	-7
Cc1ccc(NC(=O)CN(C)C(=O)Cc2ccccc2F)cc1	-6	5.1	-0.9	0.0	-15	1.8	3	0
CCOC(=O)c1ccc(NC(=O)Cn2nnc(-c3ccccc3)n2)cc1	0	1.8	2.2	0.3	1	0.9	-6	64*
CCOC(=O)c1ccc(NC(=O)CN2CCN(C(=O)C3CCCO3)CC2)cc1 (stereo not given)	-3	2.7	0.0	-0.6	.	.	-7	-1
Cc1c(C(=O)NN2CCOCC2)cccc1[N+](=O)[O-]	.	4.4	4.3	1.0	-8	-3.5	6	1
Cc1cc(NC(=O)c2cc(C(C)C)on2)nn1Cc1ccc(Cl)cc1	-6	1.0	2.9	0.0	-3	-2.2	1	8
O=C(CN1C(=O)/C(=C/c2ccccc2)SC1=S)NC1C=CS(=O)(=O)C1 (stereo not given)	-8	0.9	0.9	-1.1	-5	0.3	-25	-5
O=S(=O)(c1ccc(OCC(O)CN2CCN(c3ccccc3)CC2)cc1)N1CCOCC1 (stereo not given)	-1	5.8	4.4	-0.2	0	-1.1	7	25
CCOC(=O)c1cn[nH]c1NC(=S)Nc1ccc(Cl)cc1	4	-1.1	2.0	1.9	-8	3.8	-2	19
Cc1c(Cl)cccc1NC(=O)CSc1nncn1-c1ccccn1	-9	6.8	1.2	0.2	1	1.1	3	-11
CCCc1n[nH]c(=O)[nH]1	-1	4.4	2.5	-0.2	?	-0.4	.	1
OCC[C@H]1C[C@H](O)[C@@H](O)[C@]2(Cc3ccccc3CO2)O1	-4	0.3	2.5	0.4	.	.	.	0
O=C(Cn1cccc1C(=O)c1ccccc1)NCCCN1CCc2ccccc2C1	-4	-0.8	1.2	0.5	-5	-1.8	9	4
CSCCC1NC2(C(=O)Nc3c(Cl)cccc32)[C@@H]2C(=O)N(C3CCCC3)C(=O)[C@H]12 (stereo not given in full)	-5	4.8	2.1	0.4	55	2.6	10	-30
O=C(Nc1ccccc1N1CCN(c2ccccc2)CC1)C12CC3CC(CC(C3)C1)C2	1	3.7	2.8	0.6	-1	0.6	25	9
O=C(COc1ccccc1)NNC(=O)c1cccs1	-9	-4.0	4.8	0.7	0	.	0	-4
O=C(Nc1ccc(CN2CCOCC2)cc1)c1ccc(Cl)cc1	-3	-4.5	4.2	-1.7	22	-4.0	8	1
CCOC(=O)C1C(c2cccc([N+](=O)[O-])c2)C2C(=O)NN=C2CC1(C)O (stereo not given)	-9	9.4	5.9	-0.5	-5	-3.6	-1	11
CN(C(=O)CSc1nnc(-c2cccs2)o1)C1CCS(=O)(=O)C1 (stereo not given)	1	0.6	0.1	1.0	?	2.6	-3	-13
COc1ccc(C(=O)NNC(=S)NC(=O)c2ccco2)cc1	29	1.8	6.3	-0.8	?	-3.0	12	-3
Cc1ccc(C(=O)Nc2ccsc2C(=O)O)cc1	9	5.8	.	-8.3	0	-0.3	1	12
CC(C)(C)NC(=S)N1CCC(C(=O)c2ccc(Cl)cc2)CC1	.	2.8	0.9	-0.6	2	0.3	-2	-2
CS(=O)(=O)N(CC(=O)NC1CC1)c1cccc(F)c1	-12	-1.0	2.4	-0.3	-11	-3.0	.	-2
COc1cc(CCC(C)=O)ccc1OC(=O)c1c(F)cccc1Cl	-2	-9.3	5.0	-1.1	-17	?	2	-1
Cc1ccc(C2(c3ccc(C)cc3)CC2C(=O)NC(C)C)cc1 (stereo not given)	4	4.0	5.5	1.4	-9	1.6	-9	5
CCc1c2ccccc2nn1-c1ccccc1C(=O)C(C)=O	0	10*	4.8	0.2	-7	0.4	-5	-1
Cc1ccc(-c2c(C)n([O-])c3c([n+]2=O)CCCC3)o1	0	5.1	7.5	0.2	-7	-0.7	-8	-6
CCOc1cccc2sc(N(CCN(C)C)C(=O)/C=C/c3cccs3)nc12	17	1.1	-1.1	0.3	-8	1.3	13	21
Cc1nn(Cc2ccccc2)c(C)c1C(=O)N1CCN(CC(=O)Nc2ccccc2Cl)CC1	6	4.4	1.7	-0.9	.	.	.	4
COc1ccc(C(=O)Nc2ccccc2C(=O)Nc2cc(C)ccn2)cc1	25	6.2	-3.9	-6.0	10	2.3	6	0
COc1cc(C(=O)NCC(=O)N2CC=C(c3ccccc3)CC2)cc(OC)c1OC	2	-3.8	6.5	-0.2	3	0.6	4	1
N#Cc1c(-c2ccco2)nc(SCc2ccc(F)cc2)[nH]c1=O	-9	2.4	7.2	-0.2	8	-0.3	-1	14
COc1ccc(NS(=O)(=O)c2cccc(C(=O)NNC(=O)c3ccccc3OC)c2)cc1	1	10	5.3	-1.2	11	-0.8	-3	16
O=C(O)C1=CCNCC1	-5	3.8	-3.0	0.5	.	-2.5	-14	-4
COc1ccc(CNC(=O)C2CC(C)=C(C)CC2C(=O)O)cc1OC (stereo not given)	-3	-30	.	0.2	-10	-3.4	-4	-4
Cc1ccc(-c2cc(N)n3nc(-c4ccc(C)cc4)cc3n2)cc1	6	0.6	-38	-0.3	-2	0.7	5	-8
CC(C)n1c(C(=O)OCC(=O)NCc2ccc3c(c2)OCO3)cc2occc21	-8	-0.9	3.7	0.2	-19	2.2	-5	-6
Cc1ccc(CNC(=O)C(=O)NCC2OCCN2S(=O)(=O)c2cccs2)cc1 (stereo not given)	0	-1.4	-0.2	0.2	0	0.1	0	0
(more compounds)
SMILES	Beta cell apopt	LANA-H2B inh	UCH37 inh	A1 inh	Calb FLC	RanGTP-Impb inh	T cruzi repl	Beta2AR agonist
Cc1[nH]c(=O)[nH]c(=O)c1S(=O)(=O)N1CCCC(C(=O)N2CCC(Cc3ccccc3)CC2)C1 (stereo not given)	-7	0.3	2.3	-0.2	.	.	.	-2
O=C(O)c1ccn(COc2ccc(Br)cc2)n1	-2	1.0	2.0	-1.2	-9	2.0	-13	-3
Cn1c(SCc2nc3ccccc3n2CCO)nc2ccccc21	-9	-2.8	3.0	0.6	8	-0.1	-14	-2
CC(C)C(NC(=O)c1ccc(C(C)(C)C)cc1)C(=O)NCc1ccccn1 (stereo not given)	-9	-4.6	0.7	-0.1	.	.	.	-9
CCOC(=O)N1CCC(NC(=O)c2cc(S(=O)(=O)N3CCOCC3)ccc2F)CC1	2	-5.6	0.3	0.6	-7	6.4	8	-2
CC(=O)N1N=C(c2ccc(Br)cc2)OC12CCCC2	36	4.7	-5.3	0.7	-3	-3.2	-8	-2
O=C(Nc1ccccc1)NC1(C(=O)NCc2cccs2)CCCCC1	-1	0.5	3.1	0.7	-1	?	-10	0
CCOc1cccc2sc(=NC(=O)c3ccco3)n(CC(=O)OC)c12	1	-0.4	-31	0.0	9	2.2	6	5
O=C(C1=C(O)C(=O)N(Cc2ccco2)C1c1cccs1)c1cccs1 (stereo not given)	-6	4.1	8.1	-0.3	4	4.3	-9	10
Cn1c(SCC(=O)N/N=C/C=C\c2ccco2)nc2ccccc21	-7	-5.2	.	0.1	16	-4.0	-14	-11
COc1ccc([C@H]2CC(=O)C=C(c3ccc4c(c3)OCCO4)C2)cc1	-2	-8.2	0.5	-1.5	.	.	.	0
